LT uptake inh – qHTS Assay for Anthrax Lethal Toxin Internalization; Cells, anthrax lethal toxin internalization, FRET ratio (460/530); Potency, µM (top dose mostly 40 µM), without a hit: at the highest dose activity change, negative = inhibition, usual class: inhibitors; hit rate 0.67% among 70,000; active = well fitted falling ratio curve with the 530 nm signal flat; inconclusive = other ratio curves, or a change in one channel alone; inactive = flat curves in the ratio and both channels; the % refers to the ratio; further: on the % scale 0 is the no-effect control and ±100 the full control effect; nearly all actives have a fitted effect of over 50% in size; tested in ME-180 cells; beta-lactamase reporter
Prx2 Sm inh – Schistosoma Mansoni Peroxiredoxins (Prx2) | Schistosoma mansoni peroxiredoxin 2 (Prx2) | S. mansoni Prx2 activity coupled to TGR/GSH (TGR is thioredoxin glutathione reductase), NADPH fluorescence loss, qHTS; some inactives read as strong as hits | Potency, µM | hit rate 0.07% among 65,000; active means full or partial inhibition curve with a strong effect at the top dose; inconclusive means weaker partial or single-point curve; inactive means no accepted curve; further: series up to 57 µM; many of its hits are not listed in these tables
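Prx2 inhibition was measured as reduced NADPH consumption when electrons flowed from NADPH through TGR and glutathione to Prx2 and H2O2. Plates were read kinetically over 8 min; enzyme reagents were held at 4 deg C during dispensing.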
Numbers without * were called inactive; ? = inconclusive; . = no result given; [ ] = remark or other dose. Potency means the concentration at half of the fitted maximal effect.

Below each compound: LT uptake inh, Prx2 Sm inh
- CCOC(=O)N1CCC(Nc2cc(C)nc3c(-c4ccccc4OC)c(C)nn23)CC1
  ?, >57
- COc1ccc(CNC(=O)c2cnc(C)cn2)c(OC)c1
  -8%, >57
- Cn1c(=O)c2c(nc(Cl)n2Cc2ccncc2)n(C)c1=O
  -6%, >57
- O=C(NCCNC(=O)C(c1ccccc1)c1ccccc1)c1ccco1
  -7%, >57
- N#CC1=C(N)SC(N)=C(C#N)C1c1ccc(C(F)(F)F)cc1
  ?, >57
- COc1ccc(N2CCN(C(=O)CCS(=O)(=O)c3cccc4nsnc34)CC2)cc1
  5%, >57
- CCSc1ccccc1C(=O)NCCCn1ccnc1
  ?, >57
- Cc1c2cnccc2c(C)c2c1c1ccccc1n2CCOC(=O)c1ccccc1
  9%[8 µM], >57
- C=C(C)Cn1c(COc2ccccc2)nnc1SCC(=O)O
  8%, .
- CN(C)CCCc1cc(C(=O)Nc2ccc(-c3ccncc3)cc2)ccc1O
  ?, >57
- CCN(CC)C(=O)C1=C(C)NC(=O)NC1c1ccccc1F (stereo not given)
  ., >57
- CCCC(C(=O)NC1CCCCC1)N(CC1CCCO1)C(=O)CNS(=O)(=O)c1ccc(F)cc1 (stereo not given)
  -3%, >57
- Cc1cccc2cc(CN(Cc3nnnn3Cc3ccco3)C3CCCC3)c3nnnn3c12
  -29%, >57
- CN(Cc1ccccc1)S(=O)(=O)c1ccc2c(c1)n(C)c(=O)n2C
  -17%, >57
- COc1ccccc1OCc1ccc(C(=O)N2CCN3CCCC3C2)cc1 (stereo not given)
  -10%, >57
- CCOc1ccc2sc(NS(=O)(=O)c3ccc(OC)c(OC)c3)nc2c1
  -3%, >57
- COc1ccc(-c2cc(C(F)F)n3ncc(C(=O)NCCCN4CCCC4=O)c3n2)cc1
  5%, >57
- O=C(CCl)c1ccc(Cl)cc1Cl
  5µM*, .
- O=C1N(CN2CCC3(CC2)OCCO3)c2ccccc2C12OCCCO2
  -13%, >57
- CCSc1nnc(NC(=O)CSc2nccn2-c2cc(C)cc(C)c2)s1
  -9%, >57
- Cc1noc(C)c1COc1cccc(C(=O)Nc2ccc(C#N)cc2)c1
  3%, >57
- Cc1cccc(C#N)c1NC1=CC(=O)CC(C)(C)C1
  -14%, .
- COc1cccc(-c2cc(C(=O)N3C(C)CCCC3C)no2)c1 (stereo not given)
  10%, >57
- CSCCC=O
  1%, .
- c1csc(Cc2nc(-c3ccc(-n4cccc4)cc3)no2)c1
  2%, >57
- c1ccc(Cc2nn3c(COc4ccccc4)nnc3s2)cc1
  11%, >57
- COc1ccc2c(c1)C(=O)OC2CC(=O)O (stereo not given)
  -10%, >57
- CCN(CC)CC(=O)n1c2c(c3ccccc31)CCCC2
  -24%, .
- CCOC(=O)CCC(=O)c1c(C)oc2ccc(OC)cc12
  -8%, >57
- Cc1ccc(-c2nnn(CC(=O)O)n2)cc1
  ?, >57
- CCOC(=O)c1c(-c2cccs2)csc1NC(=O)c1ccco1
  -16%, >57
- CCC(=O)NCCNC(=O)c1c(SC)nsc1SC
  0%, >57
- CC(C)CCn1c(CN2CCOCC2)nc2c1c(=O)n(C)c(=O)n2C
  0%, >57
- CC(=NCCO)c1c(O)n(C2CCCCC2)c(=O)[nH]c1=O
  11%, >57
- c1ccc(-c2noc(CSc3nnnn3-c3ccccc3)n2)cc1
  ?, >57
- O=C(CSc1nnnn1Cc1ccccc1)Nc1ccc2c(c1)OCCO2
  2%, >57
- O=C(CCCC(=O)N(CC(=O)NC1CCCCC1)Cc1ccco1)Nc1ccccn1
  -10%, >57
- CO[C@H]1COC(=O)[C@H](C)NC(=O)C/C=C\[C@@H](C)[C@H](OC)COC(=O)C/C=C\[C@@H]1C
  6%[8 µM], .
- O=C(O)c1ccccc1C1c2ccccc2Oc2ccccc21
  0%[8 µM], >57
- COc1cccc2sc(Nc3nc(-c4ccccn4)cs3)nc12
  ?, >57
- COc1ccc(NC(=O)CN(c2cccc(F)c2)S(C)(=O)=O)cc1OC
  3%, >57
- CCC1CCCCN1CC(=O)c1c(C)[nH]c2ccccc12 (stereo not given)
  ., >57
- Cc1ccc(Cn2c(=S)[nH]c3ccc(N4CCOCC4)cc3c2=O)o1
  -29%, >57
- NC(=O)C1(N2CCCCC2)CCN(c2nc(-c3ccccc3)cs2)CC1
  -2%, >57
- CCCCCCCCCCCCCCC1CO1 (stereo not given)
  -12%, .
- COC(=O)NC(CC(C)=O)c1cccc(C(F)(F)F)c1 (stereo not given)
  -22%[8 µM], .
- CS(=O)(=O)Nc1ccc(C(=O)NCc2ccccn2)cc1
  8%, >57
- Cc1ccc(N2C(=O)c3ccccc3C2(O)c2ncc[nH]2)cc1 (stereo not given)
  -3%, >57
- CC1CCCCC1NC(=O)Cn1[nH]c(=O)c2ccccc2c1=O (stereo not given)
  -8%, >57
- N[C@@H](CNO)C(=O)O
  -7%[8 µM], >57
- CC(=O)c1cccc(NC(=O)Nc2ccc(C(=O)N3CCCC3)cc2)c1
  4%, >57
- CC(=O)OC1CSc2nc3ccccc3n2C1 (stereo not given)
  ?, >57
- COc1ccc(C2N(c3cc(Cl)ccc3OC)C(=O)C3CCCN32)cc1OC (stereo not given)
  1%, >57
- CC(=O)c1c(C)[nH]c(C(=O)NCCCN2CCCC2)c1C
  0%, >57
- COc1ccc(C2OC(=O)c3ccccc3S2)cc1 (stereo not given)
  -5%, .
- COC(=O)C(Nc1nccs1)(OC)C(F)(F)F (stereo not given)
  15%, >57
- Cc1ccc(C(=O)CSc2nnc(CNc3ccc(C)cc3C)n2Cc2ccco2)cc1
  ?, >57
- O=C(CCC(=O)OCC(F)(F)C(F)F)Nc1ccc(Cl)cc1
  2%, .
- CCOC(=O)c1ccc2c(c1)N(Cc1ccccc1C)C(=O)c1ccccc1S2=O (stereo not given)
  -7%, >57
- CC(C)(C)n1nnnc1C(c1ccccc1F)N1CCN(C2CCCC2)CC1 (stereo not given)
  2%, >57

(further entries)
Below each compound: LT uptake inh, Prx2 Sm inh
- COc1ccc(CN2C(=O)c3ccccc3C2C(=O)NCC2CCCO2)c(OC)c1 (stereo not given)
  -9%, >57
- CCOC(=O)C1CCN(c2nc(-c3ccccc3)nc3c2oc2ccccc23)CC1
  -9%, >57
- Cc1ccc(O)c(NC(=O)CCCC(=O)O)c1
  0%, >57
- CC(=O)N(O)[C@@H]1c2cc(C#N)ccc2OC(C)(C)[C@H]1O
  -3%, .
- Cc1ccccc1-c1nc2ccccc2c(=O)n1C1CCS(=O)(=O)C1 (stereo not given)
  11%, >57
- Cc1cc(C)cc(NC(=O)CSc2nc3c(c(=O)n2C)SC(C)C3)c1 (stereo not given)
  0%, >57
- CC(=O)N1CCC2(CC1)CCN(C(=O)Nc1cccc(F)c1)CC2
  ?, >57
- COc1cc(OC)cc(-c2nnc(SCC(=O)N3CCCc4ccccc43)o2)c1
  10%, >57
- CCC1(C)CC(CC(=O)O)(c2ccccc2OC)CCO1 (stereo not given)
  -11%, .
- C=CCNC1=C(Cl)C(=O)N(c2ccccc2Cl)C1=O
  19%, >57
- CCc1ccccc1OCC(=O)Nc1ccc(S(N)(=O)=O)cc1
  -20%, >57
- Cc1cc(C)cc(OCc2nnc(SCC(=O)c3ccc(Br)cc3)o2)c1
  -16%, >57
- CCOc1ccc(-c2nc(CSc3nncs3)cs2)cc1OC
  ?, >57
- COC(=O)CC1Oc2ccc(C)cc2NC1=O (stereo not given)
  -2%, >57
- CCOc1ccccc1NC(=O)CSc1nnc(Cn2c(=O)sc3ccccc32)n1C
  -9%, >57
- CCOC(=O)C1C(=O)NC(SCC(=O)OC)=C(C#N)C1c1ccccc1OCC (stereo not given)
  ?, >57
- CCCCNc1nc(C)nc2c1nc(-c1ccccc1)n2CCCN(CC)CC
  -7%, .
- COc1cc2c(cc1OC)-c1c(OC)c(OC)cc3c1C(C2)N(C)CC3 (stereo not given)
  -20%, .
- OC(CCCCN1CCCCC1)c1ccccc1 (stereo not given)
  ?, >57
- O=C(C1CCCN1S(=O)(=O)c1cccc2cccnc12)N1CCc2ccccc2C1 (stereo not given)
  -9%, >57

Remaining list, next part.
smiles	LT uptake inh	Prx2 Sm inh
Cn1c(Cn2nnc3ccccc32)nnc1SCC(=O)N1CCc2ccccc21	-1%	>57
COc1ccc(C(C)=O)cc1COC(=O)c1cccc(N(C)C)c1	-28%	>57
CCOC(=O)c1c(C)[nH]c(C)c1C(=O)CSc1nnc(-c2ccncc2)n1C	-8%	>57
COc1cccc(N2CCN(S(=O)(=O)c3ccc4nc(-c5ccccc5)[nH]c4c3)CC2)c1	-6%	>57
NC(=O)C1(N2CCCCC2)CCN(S(=O)(=O)c2cc(Cl)ccc2Cl)CC1	5%	>57
O=C(Cc1ccccc1)OCCN1CCCCC1	3%	>57
Brc1ccc(-c2nn3c(-c4ccncc4)nnc3s2)o1	-1%	>57
O=C(O)CCCC(=O)Nc1nc2n(n1)C(c1ccc(F)cc1)CC(c1ccc(Cl)cc1)N2 (stereo not given)	-3%	>57

4 of these compounds in another layout:
smiles: COc1cccc(N2CCN(S(=O)(=O)c3ccc4nc(-c5ccccc5)[nH]c4c3)CC2)c1
  LT uptake inh: -6%
  Prx2 Sm inh: >57
smiles: COc1ccc(C(C)=O)cc1COC(=O)c1cccc(N(C)C)c1
  LT uptake inh: -28%
  Prx2 Sm inh: >57
smiles: Cn1c(Cn2nnc3ccccc32)nnc1SCC(=O)N1CCc2ccccc21
  LT uptake inh: -1%
  Prx2 Sm inh: >57
smiles: O=C(Cc1ccccc1)OCCN1CCCCC1
  LT uptake inh: 3%
  Prx2 Sm inh: >57

The list goes on:
smiles	LT uptake inh	Prx2 Sm inh
CC(C)[C@H](NC(=O)OC(C)(C)C)[C@@H](O)CC(=O)C(C)(C)C	2%[8 µM]	.
CC1Cc2ccccc2N1C(=O)CN1C(=O)NC(C)(c2ccc3c(c2)OCCO3)C1=O (stereo not given)	-4%	>57
CC(C)[C@]1(NC(=O)[C@H]2C=C3c4cccc5[nH]cc(c45)C[C@H]3N(C)C2)O[C@@]2(O)[C@H]3CCCN3C(=O)[C@H](Cc3ccccc3)N2C1=O	?	>57
CCN1CCN(C(=O)N[C@H](C(=O)N[C@@H]2C(=O)N3[C@@H]2SC(C)(C)[C@@H]3C(=O)O)c2ccccc2)C(=O)C1=O	-1%[3.58 µM]	>57
Cc1nc(CNS(=O)(=O)c2ccc3ccccc3c2)cs1	-14%	>57
O=C(CN1C(=O)COc2ccccc21)c1ccc(Cl)cc1	-15%	>57
COc1ccc(C)cc1NC(=O)c1nc2nc(C)cc(C)n2n1	1%	>57
Cc1noc(C)c1C(=O)OCC(=O)c1c[nH]c2ccccc12	2%	>57

Given as labelled records: part of the list above.
smiles: Cc1cccc(C#N)c1NC1=CC(=O)CC(C)(C)C1
  LT uptake inh: -14%; Prx2 Sm inh: .

smiles: Cc1c2cnccc2c(C)c2c1c1ccccc1n2CCOC(=O)c1ccccc1
  LT uptake inh: 9%[8 µM]; Prx2 Sm inh: >57

smiles: COc1cccc(-c2cc(C(=O)N3C(C)CCCC3C)no2)c1 (stereo not given)
  LT uptake inh: 10%; Prx2 Sm inh: >57

More entries follow.
smiles	LT uptake inh	Prx2 Sm inh
O=C(O)[C@H](Cc1cc(I)c(O)c(I)c1)C1CCCCC1	-1%[8 µM]	>57
CN1CCCC(OC(=O)CCCCC(=O)OC2CCCN(C)C2)C1 (stereo not given)	-21%	>57
O=C(C1CCN(S(=O)(=O)N2CCOCC2)CC1)N1CCOCC1	.	>57
O=C(O)Cn1nc(-c2ccc(F)cc2)oc1=O	-3%	>57
C=CCn1c(O)c(C(C)=Nc2ccc(NC(C)=O)cc2)c(=O)[nH]c1=O	1%	>57
CCn1c(SCC(=O)Nc2ccc(NC(=O)c3cccs3)cc2)nnc1-c1cccnc1	-18%	>57
CCOc1ccc(CC(=O)N2CCN(c3ccc(N4CCOCC4)nn3)CC2)cc1OCC	-5%	>57
COc1cccc(N2CCN(Cc3nc(N)nc(Nc4ccccc4OC)n3)CC2)c1	.	>57
ClCC1CO1 (stereo not given)	-2%	.
COc1cc2c(cc1NC(=O)CN1C(=O)NC3(CCc4ccccc43)C1=O)oc1ccccc12 (stereo not given)	?	>57
CCC(=O)Nc1cc2c(cc1C(=O)CC)OCCO2	29%	.
CCN(CC)CCCNC(=O)c1nn(-c2ccccc2OC)c(=O)c2ccccc12	-9%	>57
CC(=O)Nc1nonc1-c1nc2ccccc2n1Cc1nnc(C)o1	-5%	.
O=C(C1CCCCC1)N1CCCC(c2nc3c(nnn3Cc3ccccc3)c(=O)[nH]2)C1 (stereo not given)	1%	>57
COCCCNC(=O)Cn1nc(-c2ccc(C)cc2)ccc1=O	14%	>57
O=C(O)c1cccc(-n2cnnn2)c1	8%	.

Taken from above.
Reading for COCCCNC(=O)Cn1nc(-c2ccc(C)cc2)ccc1=O in LT uptake inh: 14%
Reading for COc1cc2c(cc1NC(=O)CN1C(=O)NC3(CCc4ccccc43)C1=O)oc1ccccc12 (stereo not given) in Prx2 Sm inh: >57
Reading for CC(=O)Nc1nonc1-c1nc2ccccc2n1Cc1nnc(C)o1 in LT uptake inh: -5%

Source: PubChem (National Center for Advancing Translational Sciences (NCATS))

This is a subset. The share of hits here may be higher or lower than overall.
